Bead autofluor: counter-screen for toxin protease inhibitors: compound fluorescence | compound autofluorescence counterscreen, microsphere flow cytometry; active compounds read high | fluorescence intensity (no concentration beside the values) | 360,000 tested, 3.1% active | AID 624483;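 active = at least 3 SD above the mean of all compounds, about 16000 in these data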;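 note: 100 nL of 1 mM stock went into each well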
Active calls of the source: *; & = joins results of further samples. This is a subset; the hit share may differ from the screen's.

A first look:
Structure,Bead autofluor
Cc1cccc(-c2cc(NCCc3cccnc3)n3nccc3n2)c1,2886
COc1cc(OC)nc(Nc2nc(C(N)CCc3ccccc3)cs2)n1 (configuration not stated),3203
COCCNC(=O)C1(C)CCCN(Cc2csc3ccccc23)C1 (configuration not stated),4151
Cc1ccc(-c2nn(-c3ccccc3)cc2C=C2SC(=S)N(CCS(=O)(=O)O)C2=O)cc1,2895
O=C1c2ccccc2C(c2nnnn2C2CCCCC2)N1CCc1ccc(O)cc1 (configuration not stated),6415

The listing, repeating the preview:
Structure,Bead autofluor
Cc1cccc(-c2cc(NCCc3cccnc3)n3nccc3n2)c1,2886
COc1cc(OC)nc(Nc2nc(C(N)CCc3ccccc3)cs2)n1 (configuration not stated),3203
COCCNC(=O)C1(C)CCCN(Cc2csc3ccccc23)C1 (configuration not stated),4151
Cc1ccc(-c2nn(-c3ccccc3)cc2C=C2SC(=S)N(CCS(=O)(=O)O)C2=O)cc1,2895
O=C1c2ccccc2C(c2nnnn2C2CCCCC2)N1CCc1ccc(O)cc1 (configuration not stated),6415
C[C@@H]1CN([C@@H](C)CO)C(=O)c2cc(-c3ccncc3)cnc2O[C@H]1CN(C)C(=O)c1cccc(F)c1,3827
COc1cccc(C(=O)N2CCC[C@H]2C(=O)N2CCC[C@H]2C(=O)NCc2ccncc2)c1,5567
CCc1nc2ccc(C(=O)NCCc3ccccn3)cn2c1N(CC)Cc1cccc(Br)c1,3921
CNc1cncc(-c2c(OC)cccc2OC)n1,3590
CC(C)(C)c1ccc(C(=O)N2CCC2(C)C(=O)Nc2ccc3[nH]ncc3c2)cc1 (configuration not stated),3585
COc1ccc(-c2coc3c(C(=O)Nc4cc(OC)c(OC)c(OC)c4)cccc23)c(C)c1,3833
CCCCC[C@@H]1CCCCC[C@@H](O)C[C@@H](O)[C@@H](O)/C=C/C(=O)O1,6221
Nc1cc(C(=O)N2CCN(c3ccccc3Cl)CC2)ccc1N1CC2CC(C1)c1cccc(=O)n1C2 (configuration not stated),2861
COc1ccc(C(C)(NC(C)=O)c2nc(-c3ccc(S(C)(=O)=O)cc3)cs2)cc1 (configuration not stated),2943
CCCCN(C=O)c1c(CC)nc2c(OCc3ccc(C(F)(F)F)cc3)cccn12,4346
CC(C)(C)c1ccc(S(=O)(=O)NC(=O)C2(C)CCN2C(=O)C2(c3ccccc3)CC2)cc1 (configuration not stated),3806
CCOC(=O)C1=C[C@@H](c2ccccc2)N(S(=O)(=O)c2ccc(C)cc2)[C@H]1c1cccc(Cl)c1,4480
CN1OC[C@@H]2CN(C(=O)CCc3ccccc3)[C@H](c3ccccc3Br)C[C@@H]21,6215
Cc1ccccc1NC(=O)C(C)Sc1nnc(CN2CCCC2)n1Cc1ccccc1 (configuration not stated),3681
COc1ccc(C(=O)c2[nH]c(N)c(C(=O)NCCc3c[nH]c4ccccc34)c2-c2ccc(Cl)c(F)c2)cc1,4202
CCOC(=O)C1CCCN(C(=O)c2cccc(C(F)(F)F)c2)CC1 (configuration not stated),3919
CC1(C(=O)NS(=O)(=O)c2ccc(Cl)s2)CCN1C(=O)c1ccc(C2CCCCC2)cc1 (configuration not stated),4094
COc1cc2c(=O)[nH]c3cc([N+](=O)[O-])ccc3c2cc1[N+](=O)[O-],3865
CC(C)CC1C(=O)N(Cc2cn(CC3CCCCC3)nn2)CCS(=O)(=O)N1Cc1ccc(-c2ccncc2)cc1 (configuration not stated),2829
Cc1ccc2nc(-c3ccc(C#N)cc3)c(Cc3cccc(Cl)c3)n2c1,6956
Cc1cccc(C)c1NC(=O)C(c1ccccc1)N(C)CCc1ccccc1 (configuration not stated),5655
Nc1nccc2c1ncn2C1OC(CO)C(O)C1O (configuration not stated),3857
Cc1cccc(C(O)c2ncc(-c3ccc(F)cc3)[nH]2)c1C (configuration not stated),3005
Cc1cc(C)cc(Cn2cc(CN3CC(N4CCCC4)CS3(=O)=O)nn2)c1 (configuration not stated),5883
Cc1ccc(S(=O)(=O)NN(Cc2ccccc2)Cc2ccccc2)cc1,3364

Reprinted from the part before: 2 compounds, followed by the next part.
Structure,Bead autofluor
Cc1cc(C)cc(Cn2cc(CN3CC(N4CCCC4)CS3(=O)=O)nn2)c1 (configuration not stated),5883
Cc1ccc(S(=O)(=O)NN(Cc2ccccc2)Cc2ccccc2)cc1,3364
O=S(=O)(Nc1ccc(NS(=O)(=O)c2ccccc2)c2ccccc12)c1ccccc1,3860
COc1ccc(NC(=O)Nc2nc(C(N)Cc3ccc(C(F)(F)F)cc3)cs2)cc1 (configuration not stated),3007
COc1ccc(-c2ccc3nccn3c2)cc1,4268
CCc1ccc(C#CC2=CC(=O)CC(C)(C)C2)cc1,3824
O=C(NCCc1cccc(F)c1)C1CC(O)CN1C(=O)Nc1ccccc1 (configuration not stated),3972
O=C(COC(=O)c1cc(S(=O)(=O)N2CCOCC2)ccc1F)Nc1ccccc1C(F)(F)F,3684
Cc1cccc(S(=O)(=O)NC(=O)C2(C)CCN2C(=O)Cc2ccc(-c3ccccc3)cc2)c1 (configuration not stated),3721
O=C(Nc1cc(S(=O)(=O)N2CCOCC2)ccc1N1CCCC1)c1ccccc1F,3403
CCOC(=O)C1(c2ccccc2)CCN(CCC(=O)Nc2ccc(OC)cc2)CC1,3488
COc1ccc(-c2c(C(=O)c3ccccc3)[nH]c(N)c2C(N)=O)cc1OC,5996
O=C(Nc1ccc(Cc2ccc(NC(=O)Nc3cccnc3)cc2)cc1)Nc1cccnc1,3622
CCOC(=O)C1(Cc2ccccc2)CCCN(C(=O)COc2ccccc2OC)C1 (configuration not stated),3742
O=S1(=O)N[C@@H](Cc2ccccc2)COc2cccc(N3CCC[C@H]3CO)c21,5990
Nc1nc2cc(Cl)ccc2cc1C(=O)NCCCc1ccccc1,6061
O=C1NC[C@@H](CCCCN2C[C@H](Cc3ccc(O)cc3)N(CCc3ccc(O)cc3)C(=O)C2=O)N(CCc2ccccc2)C1=O,6207
CC(=O)Nc1cc(-c2cccc(NS(C)(=O)=O)c2)cn2c(-c3cccc(C(C)=O)c3)cnc12,3486
O=S1(=O)NCC2(CC2)CN1Cc1ccccc1,5109
COc1ccc(C(C)(NC(C)=O)c2nc(-c3cc(F)cc(F)c3)cs2)cc1 (configuration not stated),3576
C[C@H](O)C#Cc1ccc2c(c1)O[C@@H](CN(C)C(=O)c1ccncc1)[C@@H](C)CN([C@H](C)CO)S2(=O)=O,2990
CC(C)c1ccc(CC(=O)N2CCC2(C)C(=O)Nc2ccc3c(c2)OCO3)cc1 (configuration not stated),3901
CCc1nc2ccc(C(=O)NCCc3c[nH]c4ccccc34)cn2c1N(C=O)CCC(C)C,3977
O=S(=O)(NC1CCCC1)c1ccc(F)cc1F,3918
Cc1cnc(CNC(=O)c2ccc3sc([C@@H]4O[C@H](CO)[C@H](O)[C@H](O)[C@H]4O)nc3c2)cn1,3626
Cc1ccc(S(=O)(=O)NCCc2nnc3ccc(N4CCOCC4)nn23)cc1,3551
Cc1ccnc(NS(=O)(=O)c2ccc(NC(=O)c3cccc(Cl)c3)cc2)n1,3988
CC(C)[C@@H](CO)NC(=O)[C@H]1O[C@@H](n2cnc3c(N)ncnc32)[C@H](O)[C@@H]1O,4410
O=C1[C@H]2[C@@H](c3ccc(C(F)(F)F)cc3)N[C@]3(CCCN(CC4CCCCC4)C3=O)[C@H]2C(=O)N1Cc1ccccc1,3422
O=C(CNC(=O)N1CC(=O)Nc2ccccc21)Nc1ccc(Br)cc1F,3744
COc1cccc(C(C)(O)c2nc(-c3ccc(S(C)(=O)=O)cc3)cs2)c1 (configuration not stated),3777
COc1ccc(NC(=O)COC(=O)Cc2cccs2)cc1Cl,3659
Cc1ccc(-c2cc3nc(C)cc(N4CCN(C(=O)c5ccoc5)CC4)n3n2)cc1,3042
Cc1ccc(S(=O)(=O)NC(=O)C2(C)CCN2C(=O)c2ccccc2)nc1 (configuration not stated),3856
OCCNc1ncnc2c1ncn2[C@H]1CN(Cc2ccc(Cl)cc2)C[C@@H](CO)O1,3773
COCC#Cc1ccc2c(c1)O[C@@H](CN(C)C(=O)Nc1ccc(OC)cc1)[C@H](C)CN([C@H](C)CO)S2(=O)=O,2917
COCc1cccc(-c2csc(C(C)(NC(C)=O)c3ccccc3)n2)c1 (configuration not stated),3664
CC1CCCCC1NC(=O)c1cc(Cl)nc2ccccc12 (configuration not stated),4580
CCCCCC(=O)N1C[C@H](O)[C@@H](n2cc(COC(=O)c3ccccc3)nn2)C[C@@H]1c1ccccc1,3857
NC(c1csc(NC(=O)Nc2ccc(OC(F)(F)F)cc2)n1)C1CCCCC1 (configuration not stated),2897
O=C(NCc1cccnc1)c1cc(C2CCCN(C(=O)CCCc3ccccc3)C2)on1 (configuration not stated),3484
COc1cccc(C(c2nnnn2C2CCCC2)N2CCC3(CC2)C(=O)NCN3c2ccccc2)c1OC (configuration not stated),5667
CN(CC(=O)Nc1ccc(Cl)c(C(F)(F)F)c1)C(=O)C1CC(=O)N(c2ccc3c(c2)OCCO3)C1 (configuration not stated),3422
O=C(CCNC(=O)c1ccccc1Cl)Nc1ccc(S(=O)(=O)N2CCOCC2)cc1,3475
CC1(C(=O)Nc2ccc3c(c2)OCCO3)CCN1Cc1ccc(-c2ccccn2)cc1 (configuration not stated),3810
CCc1ccc(C(O)c2ncc(-c3ccc(C(F)(F)F)cc3)[nH]2)cc1 (configuration not stated),3122
Nc1[nH]c(C(=O)c2ccccc2)c(-c2ccccc2C(F)(F)F)c1C(=O)NCCc1c[nH]c2ccccc12,6452
CC(=O)C1=CCC(c2ccc(F)cc2)N(S(=O)(=O)c2ccc(C)cc2)C1 (configuration not stated),6350&5999
CCN(c1ccc(OC)cc1)S(=O)(=O)N1CCCC(C(=O)NC(C)c2ccccc2)C1 (configuration not stated),6066
CC(=O)Nc1cccc(-c2ccnc3c2CC(C(=O)NCc2ccc(N(C)C)cc2)O3)c1 (configuration not stated),3559
C[C@H](NC(=O)CC[C@H]1O[C@@H](n2ccc(=O)[nH]c2=O)[C@H](O)[C@@H]1O)c1cccc2ccccc12,5051
Cc1ccsc1C(=O)N1CCC1(C)C(=O)NCc1cccnc1 (configuration not stated),3765
C[C@H]1CN([C@@H](C)CO)C(=O)CCCn2cc(nn2)CO[C@@H]1CN(C)S(=O)(=O)c1ccc2ccccc2c1,2964
COc1ccc(-c2nc3ccc(C)cn3c2CC2CCCCC2)cc1OC,6199
O=C1NC[C@H](CCCCN2C[C@H](Cc3ccccc3)N(CC3CCCCC3)C(=O)C2=O)N(CC2CCCCC2)C1=O,6135
c1ccc(OC2CCCCC2N2CCOCC2)cc1 (configuration not stated),3936
CC(C)(C)n1nnnc1C1c2ccccc2C(=O)N1CCc1c[nH]c2ccccc12 (configuration not stated),6143
CCCNC(=O)c1cc(C2CCCCN2S(=O)(=O)c2cccc3cccnc23)on1 (configuration not stated),4217
CC(=O)c1cccc(-c2ccnc3c2CC(C(=O)Nc2cccc(OC(F)(F)F)c2)O3)c1 (configuration not stated),3255
CCCCN(C=O)c1c(CC)nc2ccc(C(=O)NCCCN3CCCC3=O)cn12,3345
Cc1nc(C(F)(F)F)ccc1C(=O)N1CCC1(C)C(=O)NS(C)(=O)=O (configuration not stated),3746
N#CC(c1ccccc1)C(CC(=NO)c1ccccc1)c1ccccc1 (configuration not stated),3802

Other compounds.
Structure,Bead autofluor
Cn1cnc(S(=O)(=O)N2CCCCC2c2cc(C(=O)NCc3ccc(F)cc3)no2)c1 (configuration not stated),3244
CCOC(=O)C1=NN2C(O)C3(C)CC(C(=O)OCC)=NN3C(O)C2(C)C1 (configuration not stated),3006
Cc1ccccc1S(=O)(=O)NC(=O)C1(C)CCN1C(=O)C1(c2ccc(Cl)cc2)CCC1 (configuration not stated),4349
Cc1cn([C@H]2C[C@H](O)[C@@H](/C=C/C(=O)NCCc3cccnc3)O2)c(=O)[nH]c1=O,3979
CCCCN(C=O)c1c(CC)nc2c(OCC(=O)N3CCOCC3)cccn12,3570
O=C(COC(=O)c1cccc(Br)c1)Nc1cccc(S(=O)(=O)N2CCCCC2)c1,3871
CCOC(=O)C1CCCN(C(=O)c2sc(-c3ccccc3)nc2C)CC1 (configuration not stated),3713
CC1(C(=O)NS(=O)(=O)c2cccc(OC(F)F)c2)CCN1C(=O)COc1ccc(Cl)cc1 (configuration not stated),2867
COC(=O)[C@H]1C[C@@]2(O)CN(S(=O)(=O)c3ccc(C)cc3)C[C@@]2(OC(=O)Nc2c(C)noc2C)C[C@H]1C(=O)OC,3666
COc1cc(CNc2nccn3ccnc23)cc(OC)c1,3454
CCc1cccc(CC)c1N1C(=O)CSCC1=O,3115
CCOC(=O)[C@]12CCC=C1N(Cc1ccc3c(c1)OCO3)C(=O)[C@H](CC(=O)NCc1ccc(C)o1)C2,4820
O=C(c1[nH]c(C(F)(F)F)nc1-c1ccccc1)N1CCN(c2c(Cl)cncc2Cl)CC1,4343
O=C(NC(c1ccc(F)cc1)c1ccc2ccccc2n1)C1CCN(CCOc2ccc(Cl)cc2Cl)CC1 (configuration not stated),3866
O=C1NC[C@H](c2ccccc2)N(CCCCC2CCCCC2)C1=O,5629

Single values from the list:
Cn1cnc(S(=O)(=O)N2CCCCC2c2cc(C(=O)NCc3ccc(F)cc3)no2)c1 (configuration not stated) in Bead autofluor: 3244
CCOC(=O)C1CCCN(C(=O)c2sc(-c3ccccc3)nc2C)CC1 (configuration not stated) in Bead autofluor: 3713
O=C1NC[C@H](c2ccccc2)N(CCCCC2CCCCC2)C1=O in Bead autofluor: 5629
Cc1cn([C@H]2C[C@H](O)[C@@H](/C=C/C(=O)NCCc3cccnc3)O2)c(=O)[nH]c1=O in Bead autofluor: 3979

From PubChem BioAssay
